Vaccinia stage – blocks a specific stage of Vaccinia orthopoxvirus infection; activity change (mCherry), % (test concentration not listed); hit rate 0.01% among 89,000; Vaccinia-infected cells, mCherry/Venus stage reporter fluorescence; active compounds read low; some inactives read as strong as hits;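 active = mCherry past -33% and 40 or more points under the early reporter, replicates agreeing; inconclusive = past -33% without that gap or agreement; tested in A549 cells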;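 note: scaled between vehicle wells and reference inhibitor wells; 23 nL library stock went into each well; one replicate is shown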
Vaccinia stage Venus – also measured in Vaccinia stage; calls as there; activity change (Venus), %; measured here: Venus reporter, other viral stage;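 negative = less Venus signal; first of two replicates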
An asterisk follows results filed as active; ? = inconclusive; . = not tested or not shown; & = joins results of further samples. The list is partial; the hit share may differ from the screen's.

Fields: Vaccinia stage | Vaccinia stage Venus
> OC[C@@H]1[C@H](c2ccccc2)[C@@H](CNCC2CCC2)N1CC1CC1
→ -26 | -20
> O=C(N[C@@H]1CC[C@@H](CCn2cc(C3(O)CCCC3)nn2)O[C@H]1CO)C1CCC1
→ 3 | 6
> COc1ccc(C#Cc2ccc([C@@H]3[C@@H](CO)N4CCCCN(C(=O)Nc5ccccc5F)C[C@H]34)cc2)cc1
→ ? | .
> CCC(=O)N[C@H]1CC[C@H](CC(=O)NCc2cc(F)cc(F)c2)O[C@@H]1CO
→ -6 | -4
> C[C@H]1CN([C@@H](C)CO)C(=O)c2cc(NC(=O)C3CCCCC3)ccc2O[C@H]1CN(C)C(=O)Nc1cccc2ccccc12
→ -17 | -13
> OC[C@H]1[C@H](c2ccc(-c3ccccc3F)cc2)[C@H]2CN(Cc3cccnc3)CCCCN21
→ -30 | -24
> C[C@@H](O)C#Cc1ccc([C@H]2[C@@H](CO)N3CCCCN(S(=O)(=O)c4ccccc4)C[C@@H]23)cc1
→ -1 | 0
> Cc1ccccc1S(=O)(=O)N1CC[C@H]2[C@H](CO)Nc3ccc(C#Cc4ccccc4)cc3[C@H]21
→ ? | .
> O=C(C[C@H]1C[C@@H]2c3cc(NS(=O)(=O)c4ccc(F)cc4)ccc3O[C@@H]2[C@@H](CO)O1)NCc1ccccc1
→ -5 | -3
> C[C@H](CO)N1C[C@H](C)[C@H](CN(C)Cc2ccncc2)Oc2cc(C3=CCCCC3)ccc2S1(=O)=O
→ ? | .

Remaining list, next part.
Fields: Vaccinia stage | Vaccinia stage Venus
> C[C@H]1CN([C@@H](C)CO)C(=O)CCCn2nncc2CO[C@H]1CN(C)C(=O)c1ccncc1
→ 15&0 | 16&3
> C[C@H](CO)N1C[C@H](C)[C@@H](CN(C)C(=O)Cc2ccccc2)Oc2ncc(-c3ccccc3)cc2C1=O
→ 7 | 4
> C[C@H]1CN([C@@H](C)CO)C(=O)c2cc(C3=CCCCC3)cnc2O[C@H]1CN(C)C(=O)Cc1ccncc1
→ -18 | -12
> COCc1cn(CC[C@H]2CC[C@@H](NC(=O)Nc3ccccc3)[C@H](CO)O2)nn1
→ 15 | 24
> Cc1ccccc1-c1cnc2c(c1)C(=O)N([C@H](C)CO)C[C@H](C)[C@H](CN(C)CC1CCOCC1)O2
→ 11 | 1
> CS(=O)(=O)Nc1ccc2c(c1)[C@@H]1C[C@@H](CC(=O)O)O[C@H](CO)[C@@H]1O2
→ 5 | 5
> O=C(C[C@@H]1C[C@H]2c3cc(NC(=O)C4CCC4)ccc3O[C@H]2[C@@H](CO)O1)NCCN1CCCCC1
→ 9 | 13
> C[C@H](CO)N1C[C@H](C)[C@H](CN(C)C)OCCCC[C@H](C)Oc2ccc(NS(=O)(=O)c3ccc(Cl)cc3)cc2C1=O
→ -20 | -13
> C[C@H]1CN([C@@H](C)CO)C(=O)c2cccc(NC(=O)Nc3ccc4c(c3)OCO4)c2O[C@H]1CN(C)C
→ 9 | 3
> CN(C)CC(=O)N[C@H]1C=C[C@@H](CC(=O)NCc2ccccc2F)O[C@@H]1CO
→ 16 | 21

Entries of single compounds from above. Order of values: Vaccinia stage, Vaccinia stage Venus
Listed for `CCC(=O)N[C@H]1CC[C@H](CC(=O)NCc2cc(F)cc(F)c2)O[C@@H]1CO` → -6, -4
Listed for `Cc1ccccc1S(=O)(=O)N1CC[C@H]2[C@H](CO)Nc3ccc(C#Cc4ccccc4)cc3[C@H]21` → ?, .

Following part.
Fields: Vaccinia stage | Vaccinia stage Venus
> CO[C@@H]1CN(C)C(=O)c2cc(NS(C)(=O)=O)ccc2OC[C@H](C)N(C(=O)C2CCCCC2)C[C@H]1C
→ 12 | 10
> COc1ccc(NC(=O)N[C@@H]2CC[C@@H](CCNS(=O)(=O)c3cccc(Cl)c3)O[C@@H]2CO)cc1
→ -13 | -6
> Cc1noc(C)c1S(=O)(=O)Nc1ccc2c(c1)C(=O)N([C@@H](C)CO)C[C@H](C)[C@@H](CN(C)CC1CC1)O2
→ -5 | -4
> COCC(=O)N1CC2(C1)CN(Cc1cccc(F)c1)[C@@H](CO)c1c2c2ccc(OC)cc2n1C
→ 1 | -4
> C[C@@H]1CCCCO[C@@H](CN(C)C(=O)Nc2ccc(C(F)(F)F)cc2)[C@H](C)CN([C@H](C)CO)C(=O)c2cc(NC(=O)c3ccccc3)ccc2O1
→ -24 | -12
> C[C@H](CO)N1C[C@H](C)[C@H](CN(C)C(=O)Nc2cc(F)ccc2F)Oc2cc(C#CC3CCCC3)ccc2S1(=O)=O
→ ? | .
> CCS(=O)(=O)N[C@@H]1C=C[C@H](CC(=O)NC2Cc3ccccc3C2)O[C@H]1CO
→ 10 | 16
> O=C(CN1CCOCC1)N1[C@H](CO)[C@@H]2c3ccccc3NC[C@@H]21
→ 6 | -1
> CCS(=O)(=O)N1Cc2cc(C(=O)NCC3CC3)nc(-c3cccc(-c4cccnc4)c3)c2[C@H]1CCO
→ 17 | 8
> COc1ccc(NC(=O)Nc2ccc3c(c2)C(=O)N([C@@H](C)CO)C[C@@H](C)[C@@H](CN(C)Cc2ccncc2)OCCCC[C@H](C)O3)cc1
→ 29 | 16

More results.
Fields: Vaccinia stage | Vaccinia stage Venus
> C[C@H](CO)N1C[C@H](C)[C@H](CN(C)C(=O)NC2CCCC2)Oc2ncc(-c3cccnc3)cc2C1=O
→ 28 | 10
> COCC(=O)N(C)C[C@@H]1Oc2ncc(C#Cc3ccccc3OC)cc2C(=O)N([C@H](C)CO)C[C@@H]1C
→ 6 | -2
> COc1cccc(C#Cc2cnc3c(c2)C(=O)N([C@H](C)CO)C[C@@H](C)[C@H](CN(C)C)O3)c1
→ -6 | -7
> O=C(C[C@H]1CC[C@@H]2[C@H](COC[C@H](O)CN2CC2CCCC2)O1)NCc1ccc(Cl)cc1
→ ? | .
> OC[C@@H]1[C@@H](c2ccc(C#Cc3ccccc3F)cc2)[C@H]2CN(CC3CCOCC3)CCCCN12
→ ? | .
> O=C(C[C@H]1C[C@H]2c3cc(NC(=O)CC4CC4)ccc3O[C@H]2[C@@H](CO)O1)NCc1ccccc1
→ 5 | 5
> O=C(C[C@@H]1CC[C@H]2[C@@H](COC[C@H](O)CN2C(=O)Nc2ccc(F)cc2)O1)NCCCN1CCOCC1
→ 5 | 11
> CC(C)(C)[S@](=O)N1Cc2cc(C(=O)NC3CCCCC3)nc(-c3cccc(Br)c3)c2[C@@H]1CCO
→ ? | .
> C[C@@H](O)C#Cc1ccc2c(c1)O[C@H](CN(C)C(=O)CC1CC1)[C@@H](C)CN([C@@H](C)CO)S2(=O)=O
→ 6 | 7
> CO[C@@H](CN(C)C(=O)Nc1ccc(F)cc1)[C@@H](C)CN(Cc1ccccc1Cl)[C@@H](C)CO
→ -9 | 0

Next results follow.
Fields: Vaccinia stage | Vaccinia stage Venus
> Cc1ccc(S(=O)(=O)N[C@H]2CC[C@H](CC(=O)NCc3ccncn3)O[C@@H]2CO)cc1
→ -1 | 6
> Cc1noc(C)c1S(=O)(=O)Nc1ccc2c(c1)CC(=O)N([C@@H](C)CO)C[C@H](C)[C@@H](CN(C)C)O2
→ 4 | 4
> CO[C@@H]1CN(C)C(=O)c2cc(NC(=O)Nc3ccccc3F)ccc2OC[C@@H](C)NC[C@@H]1C
→ -17 | -6
> CN1c2ccc(Br)cc2[C@@H]2[C@@H](CCN2C(=O)c2ccc(F)cc2)[C@H]1CO
→ 8 | -5
> COc1ccccc1S(=O)(=O)N[C@H]1CC[C@@H](CCNC(=O)C2CCOCC2)O[C@@H]1CO
→ 5 | 3
> CCCC#Cc1ccc([C@H]2[C@@H](CO)N3CCCCN(S(=O)(=O)CC)C[C@H]23)cc1
→ -31 | -26
> COc1cccc(-c2ccc3c(c2)O[C@@H](CN(C)C(C)=O)[C@@H](C)CN([C@H](C)CO)S3(=O)=O)c1
→ 7 | 11
> COc1ccc(NC(=O)N2C[C@H](O)COC[C@@H]3O[C@@H](CC(=O)NC4Cc5ccccc5C4)CC[C@H]32)cc1
→ 10 | 4
> Cc1ccccc1S(=O)(=O)N1CCCCN2[C@@H](CO)[C@H](c3ccc(-c4cncnc4)cc3)[C@@H]2C1
→ 25 | 2
> Cc1ccc(S(=O)(=O)N(C)C[C@H]2Oc3ccc(NC(=O)Cc4cn(C)c5ccccc45)cc3C(=O)N([C@@H](C)CO)C[C@@H]2C)cc1
→ -5 | 5

Additional records follow:
Molecule	Vaccinia stage	Vaccinia stage Venus
C[C@H]1CCCCO[C@@H](CN(C)C(=O)C2CCCCC2)[C@@H](C)CN([C@@H](C)CO)C(=O)c2cc(NC(=O)Nc3ccc(C(F)(F)F)cc3)ccc2O1	-16	-1
CCCN(C)C[C@H]1Oc2cc(C#Cc3ccccn3)ccc2S(=O)(=O)N([C@@H](C)CO)C[C@H]1C	3	3
CCC(=O)N(C)C[C@H]1Oc2ncc(C#C[C@@H](C)O)cc2C(=O)N([C@@H](C)CO)C[C@@H]1C	28	26
C[C@@H]1CCCCO[C@@H](CN(C)C(=O)CCCN(C)C)[C@@H](C)CN([C@H](C)CO)C(=O)c2cc(NC(=O)Nc3ccc4c(c3)OCO4)ccc2O1	8	-2
C[C@@H]1CN([C@@H](C)CO)C(=O)c2cccc(NC(=O)c3cnccn3)c2O[C@H]1CN(C)Cc1ccc2c(c1)OCO2	-13	-11
C[C@@H]1CCCCO[C@@H](CN(C)S(=O)(=O)c2ccc(Cl)cc2)[C@@H](C)CN([C@H](C)CO)C(=O)c2cc(NC(=O)Nc3ccc4c(c3)OCO4)ccc2O1	10	2
C[C@H]1CN([C@@H](C)CO)C(=O)c2cc(NS(=O)(=O)c3ccc(F)cc3)ccc2O[C@H]1CN(C)S(=O)(=O)c1ccc(Cl)cc1	-9	2
C[C@H](CO)N1C[C@H](C)[C@H](CN(C)S(=O)(=O)c2ccc(F)cc2)Oc2ccc(NC(=O)Nc3ccccc3)cc2CC1=O	?	.
C[C@@H]1CN([C@H](C)CO)C(=O)c2cccc(NC(=O)Nc3ccc4c(c3)OCO4)c2O[C@@H]1CN(C)S(=O)(=O)c1cccs1	19	3
CC(C)C#Cc1ccc2c(c1)O[C@@H](CN(C)C(=O)c1cccc(F)c1)[C@@H](C)CN([C@H](C)CO)S2(=O)=O	-13	-11

Of the compounds above, these have a CF3 group:
Molecule	Vaccinia stage	Vaccinia stage Venus
C[C@@H]1CCCCO[C@@H](CN(C)C(=O)Nc2ccc(C(F)(F)F)cc2)[C@H](C)CN([C@H](C)CO)C(=O)c2cc(NC(=O)c3ccccc3)ccc2O1	-24	-12
C[C@H]1CCCCO[C@@H](CN(C)C(=O)C2CCCCC2)[C@@H](C)CN([C@@H](C)CO)C(=O)c2cc(NC(=O)Nc3ccc(C(F)(F)F)cc3)ccc2O1	-16	-1

Continuation:
Molecule	Vaccinia stage	Vaccinia stage Venus
CC(C)CC#Cc1ccc2c(c1)O[C@@H](CN(C)C(=O)c1ccccn1)[C@@H](C)CN([C@H](C)CO)S2(=O)=O	-9	-15
CCC(=O)Nc1ccc2c(c1)C(=O)N(C)[C@H]1CC[C@@H](CC(=O)NCCCN(C)C)O[C@@H]1CO2	0	8
C[C@H]1CN([C@@H](C)CO)C(=O)Cc2cc(NC(=O)CCCN(C)C)ccc2O[C@@H]1CN(C)S(C)(=O)=O	10	12
C[C@@H]1CN([C@@H](C)CO)C(=O)Cc2cc(NC(=O)CCC(F)(F)F)ccc2O[C@@H]1CN(C)C(=O)Nc1ccc(F)cc1	10	1
CC(C)NC(=O)Nc1cccc2c1O[C@@H](CN(C)Cc1ccncc1)[C@@H](C)CN([C@@H](C)CO)C2=O	6	5
CCCC#Cc1cnc2c(c1)C(=O)N([C@H](C)CO)C[C@H](C)[C@H](CN(C)Cc1ccc(C(=O)O)cc1)O2	17	4
Cc1ccc(OC(=O)N(C)C[C@@H]2OCc3cnnn3CCCC(=O)N([C@H](C)CO)C[C@@H]2C)cc1	9&2	10&6
CS(=O)(=O)N1CCCCN2[C@H](C1)[C@@H](c1ccc(C#Cc3ccccn3)cc1)[C@@H]2CO	46	16
C[C@@H]1CN([C@@H](C)CO)C(=O)c2c(c3ccccc3n2C)-c2ccccc2CO[C@@H]1CN(C)Cc1ccccc1C(F)(F)F	?	.
COc1ccc(S(=O)(=O)Nc2ccc3c(c2)C(=O)N([C@@H](C)CO)C[C@H](C)[C@H](CN(C)C(=O)Nc2c(C)noc2C)OCCCC[C@@H](C)O3)cc1	4	4

The results go on:
Molecule	Vaccinia stage	Vaccinia stage Venus
C[C@@H]1CN([C@@H](C)CO)C(=O)c2cc(NS(=O)(=O)c3ccccc3)ccc2O[C@@H](C)CCCCO[C@@H]1CN(C)C(=O)Cc1ccccc1	-24	-33
CC(C)NC(=O)N(C)C[C@H]1Oc2c(NC(=O)c3cnccn3)cccc2C(=O)N([C@@H](C)CO)C[C@H]1C	-1	-7
C[C@H]1CN([C@@H](C)CO)C(=O)CCCn2cc(nn2)CO[C@@H]1CN(C)C(=O)OCc1ccccc1	3	16
O=C(C[C@H]1C[C@H]2c3cc(NS(=O)(=O)c4ccc(F)cc4)ccc3O[C@H]2[C@H](CO)O1)NCc1ccccc1	0	1
CCNC(=O)C[C@H]1CC[C@@H]2[C@@H](COc3ccc(NC(=O)Nc4ccccc4Cl)cc3C(=O)N2C)O1	-13	1
CCN1[C@@H]2Cn3c(ccc(-c4cccc(F)c4)c3=O)[C@H]1[C@@H](C(=O)N(C)C)[C@@H]2CO	3	4
CCCC#Cc1cnc2c(c1)C(=O)N([C@H](C)CO)C[C@H](C)[C@H](CN(C)C(=O)c1ccc3c(c1)OCO3)O2	5	5
COC(=O)[C@H]1[C@H](CO)[C@H]2Cn3c(ccc(-c4cccc(F)c4)c3=O)[C@@H]1N2Cc1cccnc1	-4	6
C[C@@H]1CN([C@@H](C)CO)S(=O)(=O)c2ccc(C3=CCCCC3)cc2O[C@@H]1CN(C)Cc1cncnc1	-1	1
Cc1ccc(S(=O)(=O)N[C@@H]2CC[C@H](CCNC(=O)C3CCC3)O[C@H]2CO)cc1	6	5
CN1c2ccc(Br)cc2[C@H]2[C@H](CCN2S(=O)(=O)c2ccc(F)cc2)[C@H]1CO	-14	-22
COCC(=O)Nc1ccc2c(c1)OC[C@@H](C)N(Cc1ccncc1)C[C@@H](C)[C@H](OC)CN(C)C2=O	3	2

Screens as filed in PubChem BioAssay.
